High-throughput results deposited in PubChem by several laboratories.
TLR4 MyD88 comp: TLR4-MyD88 interaction inhibition in cells; AID 861; HeLa CL3-4 TLR4/MyD88 BLA complementation, FRET ratio; inhibition, % at 8.4 µM; hit rate 0.18% among 200,000; O00206+Q99836; in the data active = inhibition above about 25%;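 note: 0% = vehicle and 100% = reference inhibitor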
ROMK mod: human ROMK K+ channel modulation, primary screen; Tet-inducible ROMK, thallium flux fluorescence; actives lie on both sides; AID 1918; P48048; B-score at 10 µM; hit rate 2% among 130,000;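 active = signal ratio slope over the read window, or its plate-corrected B-score, at least 3 SD from the plate mean, either direction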;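 note: B-score of the F/F0 ratio slope over 7 to 12 s after thallium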
S1P3 antagonist: antagonists of human S1P3 receptor; Q99500; CHO S1P3 NFAT-BLA reporter, FRET fluorescence, antagonist mode; inhibition, % at 4.98 µM; hit rate 0.27% among 170,000;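 active = inhibition above the plate cutoff, the mean inhibition of test wells on that plate plus 3 SD, cut at about 28% in these data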;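 note: cells challenged with S1P at its EC80 of 0.8 µM; blue over green emission ratio from cleaved BLA substrate after 4 h stimulation; 0% = S1P-stimulated wells and 100% = unstimulated DMSO-only wells; some compounds past the cut are filed as inactive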
Redox H2O2 prof: compounds producing H2O2 with reducing agent – biochemical, NIH compound library profiling, artefact control for MLSCN library redox annotation, primary screen | activation, % at 10 µM | hit rate 0.03% among 200,000 | AID 878 | DTT-dependent redox cycling H2O2, phenol red/HRP absorbance; 100% = 100 µM peroxide control, 0% = buffer;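 active = activation of at least 50% relative to the plate's high and low controls in the primary single-dose screen; inactive = activation below 50%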;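 note: compound incubated with DTT at 0.8 mM final as the reducing agent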
bIAP inh: intestinal alkaline phosphatase (bovine) inhibition; purified bovine IAP, CDP-star luminescence, 30 min; inhibition, % at 20 µM; 190,000 tested, under 10 active;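 active = over 50% inhibition of intestinal alkaline phosphatase at 20 µM in the single-dose screen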
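Incubation: 30 min reaction at room temperature / Material: purified bovine intestinal alkaline phosphatase (IAP) enzyme / Input: enzyme at 1/65,000,000 dilution / Dosing: 20 µM single dose / Signal: CDP-star luminescence signal / Reagent: CDP-star chemiluminescent phosphatase substrate, 30 µM final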
bIAP activator: increases bovine intestinal alkaline phosphatase activity | hit rate 0.17% among 200,000 | purified bovine IAP, CDP-star luminescence, 30 min; hits give high values; fold of DMSO-control signal, blank-subtracted | AID 1016 | activation factor at 20 µM;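 active = activation factor of 2 or more at 20 µM, a signal rise over negative controls twice the positive control's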
Active calls of the source: *; & = joins results of further samples. A portion of the library, so the mix of outcomes need not match the whole.

Screening CNCCCC12CCC(c3ccccc31)c1ccccc12 returned TLR4 MyD88 comp 8.3&-6.1, S1P3 antagonist 1.3&-5.4, Redox H2O2 prof 0.3&-4.2, bIAP inh 13.9&12.0&3.0 and bIAP activator 0.9&0.9&1.
`CC(C)(C)c1ccc(C(O)CCCN2CCC(C(O)(c3ccccc3)c3ccccc3)CC2)cc1` (stereo not drawn) gave TLR4 MyD88 comp 2.1, S1P3 antagonist -10.1, Redox H2O2 prof -0.4, bIAP inh -9.8 and bIAP activator 1.1.
`CN1[C@@H]2CC(OC(=O)[C@H](CO)c3ccccc3)C[C@H]1[C@@H]1O[C@@H]12` (stereo partly drawn) gave TLR4 MyD88 comp 1.0&-4.2, S1P3 antagonist -10.9&2.6, Redox H2O2 prof 0.3&-0.5, bIAP inh 6.6 and bIAP activator 0.4&0.9.
For CCn1nc(C(=O)O)c(=O)c2cc3c(cc21)OCO3 the results were TLR4 MyD88 comp -14.7, S1P3 antagonist -9.1, Redox H2O2 prof 0.4, bIAP inh 1.5 and bIAP activator 1.
CCn1cc(C(=O)O)c(=O)c2ccc(C)nc21 was read as TLR4 MyD88 comp 11.4, S1P3 antagonist 0.3, Redox H2O2 prof -0.1, bIAP inh 10.1 and bIAP activator 0.9.
CN(C)c1ccnc2sc(C(N)=O)c(N)c12 was read as TLR4 MyD88 comp -6.2, ROMK mod 1.73, Redox H2O2 prof -0.1, bIAP inh 6.5 and bIAP activator 0.9.
For COC(=O)C1=C(C)NC(C)=C(C(=O)OC)C1c1ccccc1[N+](=O)[O-] the results were TLR4 MyD88 comp 5.3, ROMK mod -2.53*, S1P3 antagonist 5.9, Redox H2O2 prof 0.3, bIAP inh -0.2 and bIAP activator 1.
For CN(C)CCOC(c1ccccc1)c1ccccc1 (tested in a mixture with another compound) the results were TLR4 MyD88 comp 14.2, S1P3 antagonist -3.2, Redox H2O2 prof -0.7, bIAP inh 0.2 and bIAP activator 1.
CSc1ccc2c(c1)N(CCC1CCCCN1C)c1ccccc1S2 (stereo not drawn) was read as TLR4 MyD88 comp -14.3, S1P3 antagonist 4.2, Redox H2O2 prof 1.4, bIAP inh 12.1 and bIAP activator 0.9.

5 neighbouring entries already listed, for reference:
CCn1cc(C(=O)O)c(=O)c2ccc(C)nc21 was read as TLR4 MyD88 comp 11.4, S1P3 antagonist 0.3, Redox H2O2 prof -0.1, bIAP inh 10.1 and bIAP activator 0.9.
CN(C)c1ccnc2sc(C(N)=O)c(N)c12 was read as TLR4 MyD88 comp -6.2, ROMK mod 1.73, Redox H2O2 prof -0.1, bIAP inh 6.5 and bIAP activator 0.9.
For COC(=O)C1=C(C)NC(C)=C(C(=O)OC)C1c1ccccc1[N+](=O)[O-] the results were TLR4 MyD88 comp 5.3, ROMK mod -2.53*, S1P3 antagonist 5.9, Redox H2O2 prof 0.3, bIAP inh -0.2 and bIAP activator 1.
For CN(C)CCOC(c1ccccc1)c1ccccc1 (tested in a mixture with another compound) the results were TLR4 MyD88 comp 14.2, S1P3 antagonist -3.2, Redox H2O2 prof -0.7, bIAP inh 0.2 and bIAP activator 1.
CSc1ccc2c(c1)N(CCC1CCCCN1C)c1ccccc1S2 (stereo not drawn) was read as TLR4 MyD88 comp -14.3, S1P3 antagonist 4.2, Redox H2O2 prof 1.4, bIAP inh 12.1 and bIAP activator 0.9.
